EBI2 block – antagonists of human EBI2 receptor; EBI2 beta-arrestin recruitment, luminescence, 7a,25-OHC stimulated; inhibition, % at 5 µM; hit rate 0.81% among 360,000; AID 651636; in the data active means inhibition above about 38%;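 further: enzyme fragment complementation signal reports receptor beta-arrestin coupling in cells; 0% = agonist plus DMSO wells and 100% = wells without agonist; some results beyond the cut were filed as inactive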
Target sequence (P32249 whole entry, looked up, the tested form may be a part): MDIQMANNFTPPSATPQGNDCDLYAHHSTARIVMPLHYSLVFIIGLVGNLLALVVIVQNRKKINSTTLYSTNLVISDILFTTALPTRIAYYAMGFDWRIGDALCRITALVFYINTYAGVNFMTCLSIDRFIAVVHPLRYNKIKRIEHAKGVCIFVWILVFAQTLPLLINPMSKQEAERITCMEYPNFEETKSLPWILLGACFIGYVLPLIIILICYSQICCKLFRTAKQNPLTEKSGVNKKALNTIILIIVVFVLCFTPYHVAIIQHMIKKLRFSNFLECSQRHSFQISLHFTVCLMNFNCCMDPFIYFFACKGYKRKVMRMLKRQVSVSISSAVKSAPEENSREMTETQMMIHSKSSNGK
Gli-Sufu antag – blocks Gli-Sufu signaling in a luciferase reporter; hit rate 0.74% among 340,000; Sufu-KO-LIGHT fibroblasts, Gli luciferase reporter luminescence; AID 588413; inhibition, % at 5 µM;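 active means inhibition above about 55%, limit read from the data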;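 further: 0% = DMSO-treated cells and 100% = wells with medium but no cells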
APJ antagonist – APJ receptor antagonism. P35414. CHO-K1 APJ beta-arrestin complementation, luminescence. inhibition, % at 20 µM. hit rate 0.32% among 330,000;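 active means inhibition above about 40% at 20 µM, limit read from the data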;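 further: cells challenged with 10 nM apelin-13 agonist together with compound; plate controls were apelin-13 plus DMSO wells for no effect and DMSO wells lacking apelin-13 for full effect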
Target sequence (P35414 whole entry, looked up): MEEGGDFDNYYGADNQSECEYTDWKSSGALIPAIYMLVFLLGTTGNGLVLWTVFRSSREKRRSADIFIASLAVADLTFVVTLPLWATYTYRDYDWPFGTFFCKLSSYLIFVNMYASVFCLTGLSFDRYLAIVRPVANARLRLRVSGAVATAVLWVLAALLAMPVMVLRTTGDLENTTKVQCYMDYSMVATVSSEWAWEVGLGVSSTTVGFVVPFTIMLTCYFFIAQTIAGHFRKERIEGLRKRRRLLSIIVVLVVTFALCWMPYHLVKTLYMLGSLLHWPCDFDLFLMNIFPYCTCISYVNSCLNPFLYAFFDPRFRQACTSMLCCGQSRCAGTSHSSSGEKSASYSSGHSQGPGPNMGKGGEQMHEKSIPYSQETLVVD
UBC13 polyUb – inhibitors of human UBC13 polyubiquitin chain formation; inhibition, % at 20 µM; TR-FRET; hit rate 0.47% among 330,000; P61088; in the data active means inhibition above about 45%, passing the limit was not always enough; inconclusive means no clear call, values can overlap the other calls
Target sequence (P61088 whole entry, looked up): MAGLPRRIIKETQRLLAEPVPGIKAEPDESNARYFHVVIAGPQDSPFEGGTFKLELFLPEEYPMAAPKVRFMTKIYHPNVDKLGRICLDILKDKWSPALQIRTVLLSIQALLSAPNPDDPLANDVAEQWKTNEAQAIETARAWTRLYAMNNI
Jurkat NFkB inh – lowers PMA/ionomycin-induced NF-kB signal in Jurkat cells; PMA/ionomycin-induced NF-kB luciferase reporter, luminescence; inhibition, % at 4 µM; hit rate 0.53% among 330,000; in the data active means inhibition above about 50%
697 NFkB inh – inhibitors of the PMA/ionomycin-induced NF-kB reporter in 697 B cells | AID 435022 | inhibition, % at 4 µM | hit rate 0.33% among 330,000 | 697 B-cell NF-kB luciferase reporter, 16 h; in the data active means inhibition above about 35%
* marks the source's active call; other numbers are inactive results; u = inconclusive; x = no result given; & = joins results of further samples. Not all compounds are listed; the hit share may differ from the screen's.

structure	EBI2 block	Gli-Sufu antag	APJ antagonist	UBC13 polyUb	Jurkat NFkB inh	697 NFkB inh
CCCN1CCc2c(sc(NC(=S)NC(=O)c3ccccc3)c2C#N)C1	-13	-36	25	-59	-77	-41
COc1ccc(-n2cc(-c3ccccc3)c3c(N4CCOCC4)ncnc32)cc1	-12	15	-21	-1	39	22
CC(/C=C/c1cccc([N+](=O)[O-])c1)=N\NC(=O)c1ccncc1	-8	5	12	-14	18	10
CC(=O)Nc1nonc1-c1nc2ccccc2n1Cc1ccccn1	-1	4	3	-7	-5	-21
O=C(Cc1csc(NC(=O)c2ccccc2)n1)NO	8	5	-9	-1	1	16
COc1ccc(Cl)cc1NC(=O)CN(C)CC(=O)Nc1c(C)n(C)n(-c2ccccc2)c1=O	1	-7	-48	0	15	-17
CC1=C(C(=O)Nc2cc(C)ccn2)C(c2ccc(C)cc2)C2=C(CCCC2=O)N1 (stereo not drawn)	-2	8	-7	9	0	7
N#Cc1c(NC(=O)CN2CCCCC2)sc2c1CCC2	-3	-3	5	3	-8	15
CCC(=O)Nc1nonc1-c1nc2ccccc2n1CC(C)C	-25	-7	2	4	12	7
COc1ccccc1NC(=O)C(=O)N(c1cccnc1)C(C(=O)NC(C)(C)C)c1ccccc1 (stereo not drawn)	-15	-4	0	1	-4	0
COc1ccc(-c2csc3ncnc(N4CCN(Cc5ccccc5)CC4)c23)cc1	17	27	-11	3	19	-17
COc1cc(CNC(=O)c2cc(-c3cc(Cl)ccc3C)n[nH]2)cc(OC)c1	14	x	x	x	x	x
CC(C)(C)OC(=O)NCCC(=O)N/N=C/c1cccc2cccnc12	-9	8	18	-15	8	-2
Cc1cc(C)c(NC(=O)C2CCCN2C)c(C)c1 (stereo not drawn)	2	-1	3	8	6	11
CCOC(=O)C1=NN(c2ccc(OC)cc2)C2C(=O)N(c3ccccc3OC)C(=O)C12 (stereo not drawn)	0	-21	-7	-5	-6	-7
COc1ccc(C(=O)/C=C2/C(=O)Nc3ccccc32)cc1	63*	4	-2	10	16	8
CCCS(=O)(=O)N1CCC(C(=O)NCCCN(CC)c2cccc(C)c2)CC1	-4	8	6	-2	4	22
Cc1cc(C(=O)NN=Cc2c(C)[nH]c3ccccc23)c(C)o1	-3	8	4	1	6	24
O=[N+]([O-])c1ccccc1C=NN1CCCCCC1	2	-7	x	x	x	x
COc1cccc(C(=O)NCC(=O)N/N=C/c2c(C)[nH]c3ccccc23)c1	-3	2	-5	-11	0	-15
C/C(=N\NC(=O)c1ccc([N+](=O)[O-])cc1)c1c(O)cc(C)oc1=O	-3	-4	-5	-5	-12	21
COC(=O)c1ccc(Oc2cc(C)nc(-n3nc(C)cc3C)n2)cc1	-5	52	x	x	x	x
O=C1CC(Sc2nnnn2-c2ccccc2)C(=O)N1c1cccc(Cl)c1 (stereo not drawn)	7	-10	27	6	3	-2
COc1ccc(CSc2nc(N3CCOCC3)c3c(c2C#N)CC(C)(C)OC3)cc1	18	26	0	7	-4	-7
O=C1C=C(NCc2ccccc2)CCC1	2	6	-6	-6	6	-10
Cc1ccc(NC(=O)CSc2ccc(-c3ccco3)nn2)cc1	-17	-7	2	-2	-8	14
CC(C)c1nnc(NC(=O)CS(=O)(=O)Cc2ccccc2)s1	-23	10	6	3	8	10
COC(=O)CCNC(=O)c1nn(Cc2ccccc2)c(=O)c2ccccc12	-6	-13	11	9	-6	11
Brc1ccccc1/C=N/Nc1ccc2ccccc2n1	13	-92	20	-3	-103	-163
O=c1c2c(nc3c(-c4ccc(Cl)cc4)c[nH]n13)CCCC2	1	34	-2	-3	-3	-14
CCCCNC(=O)COC(=O)CCC(=O)c1ccc(F)cc1	2	1	1	-8	-16	6
O=C1N(CN2C(=O)C3(OCCO3)c3ccccc32)c2ccccc2C12OCCO2	0	32	3	-1	-5	-30
COc1ccc(CCNC(=O)CSc2nc3[nH]ncc3c(=O)n2-c2ccc(C)c(Cl)c2)cc1OC	5	-7	x	x	x	x
CCC1Nc2ncnc(N3CCOCC3)c2N(Cc2ccc(OC)cc2)C1=O (stereo not drawn)	-18	-1	8	1	-2	12
O=C(NC1c2ccccc2-c2ccccc21)N1CCOCC1	-5	5	1	0	-12	-1
CCCCNC(=O)c1nc(C2CCN(S(=O)(=O)c3c(F)cccc3F)CC2)oc1-c1ccccc1	34	x	x	x	x	x
Fc1cccc2sc(Nc3nnc(-c4ccco4)o3)nc12	-17	-57	4	-2	-26	-120
O=C(Nc1nc(-c2ccc(Cl)s2)cs1)c1ccccc1	26	27	-4	-8	-24	-32
CCOC(=O)CSc1nc(N2CCOCC2)c2c(c1C#N)CC(C)(C)OC2	7	6	9	11	-3	-10
CCN(CC)CC(=O)Nc1c(C)cccc1C	-4&-1&-6	-2&-29&1	4&12	-4&-10	-1&9	14&9
C=CCN(CC=C)C(=S)NC(=O)c1ccc(-c2ccccc2)cc1	2	-18	20	6	-12	-1
O=C(/C=C/c1ccccc1)c1ccc2c3c(cccc13)CC2	-1	-24	3	9	-9	-14
CC(C)C(NS(=O)(=O)c1cccc2nsnc12)C(=O)N1CCc2ccccc2C1 (stereo not drawn)	6	5	9	7	5	-10
O=C(NC1CC1)c1ccc2c3c(cccc13)CC2	-7	6	10	10	2	15
O=C(CN1C(=O)/C(=C2/SC(=S)N(CCS(=O)(=O)O)C2=O)c2ccccc21)Nc1cccc(Br)c1	-6	-2	-11	-51	-17	-2

Six structures from above, ordered by number of heavy atoms, low to high.
structure	EBI2 block	Gli-Sufu antag	APJ antagonist	UBC13 polyUb	Jurkat NFkB inh	697 NFkB inh
CCN(CC)CC(=O)Nc1c(C)cccc1C	-4&-1&-6	-2&-29&1	4&12	-4&-10	-1&9	14&9
Cc1cc(C)c(NC(=O)C2CCCN2C)c(C)c1 (stereo not drawn)	2	-1	3	8	6	11
O=c1c2c(nc3c(-c4ccc(Cl)cc4)c[nH]n13)CCCC2	1	34	-2	-3	-3	-14
O=C(NC1c2ccccc2-c2ccccc21)N1CCOCC1	-5	5	1	0	-12	-1
CCOC(=O)CSc1nc(N2CCOCC2)c2c(c1C#N)CC(C)(C)OC2	7	6	9	11	-3	-10
COc1ccc(CSc2nc(N3CCOCC3)c3c(c2C#N)CC(C)(C)OC3)cc1	18	26	0	7	-4	-7

New compounds follow.
structure	EBI2 block	Gli-Sufu antag	APJ antagonist	UBC13 polyUb	Jurkat NFkB inh	697 NFkB inh
CCc1cc(-c2[nH]ncc2-c2ccc([N+](=O)[O-])cc2)c(O)cc1OC	5	2	-44	11	-7	-35
CCN(Cc1nc2ccccc2c(=O)[nH]1)C(=O)c1cc(C2CC2)nn1-c1ccccc1	4	-4	7	-3	2	-3
O=C(Nc1nnc(-c2ccc(F)cc2)o1)c1cc(Cl)sc1Cl	-6	30	2	-7	4	19
COc1ccc(NC(=O)Nc2c(C)n(C)n(-c3ccccc3)c2=O)cc1	-4	0	11	-5	-4	8
CCC(=O)c1ccccc1OCCN1CCN(Cc2ccccc2)CC1	4	7	-3	-4	-8	13
CCOC(=O)C1CCN(C(=O)c2ccc3c(c2)NC(=O)/C(=C/c2ccccc2)S3)CC1	-20	0	9	-2	-3	-18
CC(/C=C/c1ccc2c(c1)OCO2)=N\NC(=O)C(O)c1ccccc1 (stereo not drawn)	-6	4	6	1	-3	-3
Cc1cccc2cc(CN(Cc3ccco3)C(=O)c3ccncc3)c(=O)[nH]c12	-1	-42	-4	-5	-1	36*
CC(C)N(C(=O)c1ccc2nc(-c3ccccc3)c(-c3ccccc3)nc2c1)C(C)C	-3	34	-9	1	9	2
C=CCN(CC=C)c1ncnc2[nH]ncc12	1	-10	x	x	x	x
CCc1cc(C(=O)N/N=C/c2c(C)[nH]c3ccccc23)cs1	-1	0	-22	1	12	22
COc1ccc(C(=O)N/N=C/C(=O)c2ccccc2)cc1	17	-51	9	3	-29	-93
CCOC(=O)C1CCN(c2nc3ccccc3nc2C(C#N)C(=O)OC(C)C)CC1 (stereo not drawn)	19	2	15	-5	2	-21
COc1ccc(-c2c(NCCc3ccccc3)c(=O)c2=O)cc1	8	x	2	-11	15	1
Cn1c(SCC(=O)NC2CC2)nnc1C(F)(F)F	-2	1	-2	-3	9	0

Part of the list above, limited to Gli-Sufu antag:
Molecule,Gli-Sufu antag
CCC(=O)c1ccccc1OCCN1CCN(Cc2ccccc2)CC1,7
CCc1cc(-c2[nH]ncc2-c2ccc([N+](=O)[O-])cc2)c(O)cc1OC,2
C=CCN(CC=C)c1ncnc2[nH]ncc12,-10

Carrying on.
structure	EBI2 block	Gli-Sufu antag	APJ antagonist	UBC13 polyUb	Jurkat NFkB inh	697 NFkB inh
COc1ccc(C(=O)N/N=C(\c2ccccc2)c2ccccn2)cc1	6	74*	x	x	x	x
C/C(N)=C(/C#N)C(=O)COC(=O)c1cc(-c2ccc(C)cc2)nc2ccccc12	5	-15	-2	33	4	-2
Cc1cc(C)c(C(=O)N2CCCC(CNC(=O)C3(c4ccc(Cl)cc4)CC3)C2)c(=O)[nH]1 (stereo not drawn)	-3	4	-14	-16	-1	-6
Cc1cc2nc(CN(C)Cc3c(C(=O)N(C)C)nc4ccc(Cl)cn34)[nH]c2cc1C	-1	20	-21	-10	2	-25
c1ccc2[nH]c(NC3=NCCC3)nc2c1	-3	1	5	-5	-5	-24
CCC(=O)N1C(C(=O)N2CCCC2)CSC1c1ccc(OC)cc1 (stereo not drawn)	-3	11	10	4	-9	10
CCn1c(SCC(=O)Nc2ccc(Cl)cc2)nnc1C1CC1	1	-6	2	-5	8	3
COc1ccc(-c2cc(-c3nnc(-c4ccncc4)o3)c3ccccc3n2)cc1	-7	-4	-16	u	-2	14
O=C(O)CN1C(=O)SC(Nc2ccc(Cl)cc2)C1=O (stereo not drawn)	-7	12	11	-3	-10	15
CCC(=O)N1CCC1(C)C(=O)Nc1ccc2scnc2c1 (stereo not drawn)	-13	x	x	x	x	x
COCCNC(=O)c1onc(CCl)c1C(=O)OC	0	1	13	2	-5	15
COc1ccc(CC(=O)N/N=C(\C)c2ccccn2)cc1	-8	20	15	-7	11	-14
CC1(C)CC(/C=C/c2ccccc2)=Nc2ccccc2N1	-11	-35	22	10	-67	-67
COc1ccccc1C(CC(=O)Nc1ccc(Cl)cc1)c1ccc(OC(C)C)cc1 (stereo not drawn)	32	11	-9	-8	3	26
Cc1cccc(C)c1NC(=O)Cn1nc(-c2ccccc2)nc1-c1ccccc1	8	12	-5	-8	-13	-53
COc1ccc(Nc2n[nH]c(N)c2C(N)=O)cc1	1	6	14	10	-7	13
CCCCNC(=O)c1onc(CCl)c1C(=O)OC	-14	-15	-6	-7	-3	13
CCc1ccccc1NC(=O)Nc1cc(F)ccc1F	2	0	2	6	-4	-8
O=C(Nc1nc(-c2ccccc2)cs1)c1ccc(=O)[nH]c1	0	5	-26	-8	-1	-7
CC(=O)N/C(=C\c1ccccc1)C(=O)OC(C)C(=O)N(C)c1ccccc1 (stereo not drawn)	-3	1	16	3	1	12
CCN1CCCC1CNS(=O)(=O)c1ccc(Cl)c(C(F)(F)F)c1 (stereo not drawn)	5	3	-9	-1	4	6
C/C(=N\Nc1nc(-c2ccccn2)nc2ccccc12)c1ccc(F)cc1	-17	9	0	-9	19	-9
COC(=O)[C@H](CC(C)C)NS(=O)(=O)N(Cc1ccccc1)[C@@H](CC(C)C)C(=O)OC	-1	-2	7	5	-4	10
CC(C)[C@H](NC(=O)c1ccccc1)C(=O)OCC(=O)c1ccc2c(c1)NC(=O)CO2	1	-8	5	6	-2	19
COc1ccccc1CNC(=O)CSc1ccc(-c2ccccn2)nn1	-14	4	3	-10	9	0
Cc1[nH]c2ccccc2c1/C=N/NC(=O)CCC(=O)Nc1ccccc1	-8	1	-1	2	4	-3
COc1ccc(-c2csc3ncnc(N4CCN(S(=O)(=O)c5cccs5)CC4)c23)cc1	11	-1	-7	2	-6	13
COc1ccc(-c2csc3ncnc(N4CCN(S(=O)(=O)c5ccccc5C#N)CC4)c23)cc1	15	6	-9	-7	-8	11
O=C(NNC(=O)c1cc(-c2ccccc2)nn1-c1ccccc1)c1ccccc1	16	-5	-10	-8	1	-13
N#CC(=C1NC(=O)c2ccccc21)c1nc2ccccc2n1CCO	-3	x	x	x	x	x
